High-throughput results as filed in PubChem BioAssay.
RecA intein inh = Mtb RecA intein splicing inhibitors, primary screen, biochemical, fluorescence, HTS | Protein RecA (Mycobacterium tuberculosis (strain ATCC 25618 / H37Rv)), P9WHJ3 | cell-free RecA intein splicing | inhibition, %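 (about 9 µM by stock and volumes)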 | 290,000 tested, 0.75% active; in the data active = inhibition above about 30%; inconclusive = no clear call, values can overlap the other calls;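 note: 0% = vehicle wells and 100% = reference inhibitor control wells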
Target sequence (P9WHJ3 whole entry, looked up): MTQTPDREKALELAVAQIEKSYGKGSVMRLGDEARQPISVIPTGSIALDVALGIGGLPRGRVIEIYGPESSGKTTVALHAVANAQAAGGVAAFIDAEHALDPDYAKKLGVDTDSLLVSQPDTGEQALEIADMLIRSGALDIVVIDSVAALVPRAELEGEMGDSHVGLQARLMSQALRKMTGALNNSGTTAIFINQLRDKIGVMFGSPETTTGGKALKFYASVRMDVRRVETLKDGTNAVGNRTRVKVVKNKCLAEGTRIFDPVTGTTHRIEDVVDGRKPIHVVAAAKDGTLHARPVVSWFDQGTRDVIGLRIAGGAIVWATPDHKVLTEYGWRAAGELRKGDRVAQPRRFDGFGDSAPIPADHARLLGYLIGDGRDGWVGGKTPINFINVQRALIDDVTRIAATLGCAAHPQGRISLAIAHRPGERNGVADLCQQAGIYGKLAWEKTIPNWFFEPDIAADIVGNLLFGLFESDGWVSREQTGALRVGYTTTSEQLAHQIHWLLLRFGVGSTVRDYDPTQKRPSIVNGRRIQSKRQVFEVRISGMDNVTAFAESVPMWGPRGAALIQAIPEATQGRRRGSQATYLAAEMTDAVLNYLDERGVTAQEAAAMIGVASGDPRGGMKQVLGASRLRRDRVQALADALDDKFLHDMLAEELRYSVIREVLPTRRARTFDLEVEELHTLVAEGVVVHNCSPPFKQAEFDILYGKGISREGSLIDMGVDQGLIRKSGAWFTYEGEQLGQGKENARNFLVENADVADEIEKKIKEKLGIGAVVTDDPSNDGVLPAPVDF
YopH inh = YopH tyrosine phosphatase inhibitors, primary screen, biochemical, fluorescence Ex485/Em525; 140,000 tested, 0.16% active; inhibition, %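 (about 10 µM by stock and volumes)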;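 active = inhibition of 50% or more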;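 note: controls were vehicle for no effect and minimum signal wells for full effect; inactives centre near -20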
Arbovirus inh = antivirals against arbovirus infection, primary screen, cell-based, full library, 10K replicate subset; 200,000 tested, 0.37% active; AID 1251, 2008; arbovirus infection cell-based antiviral screen; inhibition, % at 10 µM;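 active = inhibition from about 30%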;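 note: bluetongue infection of BSR cells; cell survival read as ATP light after 72 h; 0% = infected wells without compound and 100% = uninfected wells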
Mtb H37Rv = M. tuberculosis H37Rv growth inhibitors, H37Rv strain (AID 1626) | M. tuberculosis H37Rv growth inhibition; higher % means a stronger effect | one-dose inhibition, % at 10 µM; IC50 in µM for titrated hits | 220,000 tested, 0.95% active;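 active = confirmed in a dose series; inconclusive = inhibition above 80% but not taken into the dose series; inactive = below 80% or under 30% at every dose of the series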;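 note: bacteria incubated seven days before Alamar blue readout; 0% = bacteria only wells and 100% = bacteria with antibiotic wells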
Mtb bLac sens = beta-lactam sensitization of Mtb H37Rv, H37Rv | M. tuberculosis H37Rv growth with meropenem, percent inhibition; hits of this screen are not shown here | inhibition, % at 25 µM | 330,000 tested, 0.27% active | AID 434955, 2010;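 active = about 74% or more and at least 40 points above the plate without the antibiotic, then above 30% in a dose series; inconclusive = first-round hits that could not be retested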;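 note: growth measured after seven days incubation then overnight dye step; 0% = bacteria only wells and 100% = bacteria with antibiotic; twin plates without the antibiotic show which effects depend on it; some results filed as inactive read as strong as hits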
Arbovirus inh repeat = also measured in Arbovirus inh; calls as there; inhibition, %; measured here: 10K subset replicate screen; many hits read low in the repeat;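 first of two repeat runs on a subset; 0% = infected and 100% = uninfected wells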
Starred values were filed as active, the others as inactive; ? = inconclusive; . = no result given; & = joins results of further samples. A portion of the library, so the mix of outcomes need not match the whole.

SMILES | RecA intein inh | YopH inh | Arbovirus inh | Mtb H37Rv | Mtb bLac sens | others
Clc1ccc(-c2nc3cc(CN4CCCCC4)ccc3o2)cc1 | 0.1 | . | . | . | 8
COc1ccccc1S(=O)(=O)Cc1ccc(C(=O)N2CCN(c3ccccn3)CC2)o1 | . | 0 | 8 | -10% | 1 | Arbovirus inh repeat=-2
COc1ccc2c(c1)CCN1C2CCN2C(=O)CCC21 (centres undefined) | -2.6 | . | . | -5% | -3
COc1ccccc1OC(=O)Cc1cccc2ccccc12 | 6.9 | . | . | . | 9
COc1ccc(C(C)=O)cc1COc1ccc(Cl)c(C)c1 | 7.9 | . | . | -1% | -4
CCn1cc(C(=O)Nc2ccc(NC(=O)c3ccco3)cc2)c(=O)c2ccc(C)nc21 | 1.8 | -23 | 15 | -13% | 4
COc1ccc(CCN(C)C2CCCN(C(=O)Cn3cccn3)C2)cc1OC (centres undefined) | -1.2 | . | . | . | 2
COc1ccc(Cl)cc1C(=O)NCc1cn(C)nc1C | . | -4 | -2 | 4% | -2
Cc1ccccc1-n1cnnc1SCC(=O)Nc1cccnc1Cl | -0.4 | . | 6 | 2% | -3
COc1cccc2cc(C(C)=O)c(=O)oc12 | -1.9 | 3 | 12 | 0% | -1
NC(=O)c1c(-c2ccccc2)oc2ccc(O)cc12 | -1.2 | 31 | 7 | -6% | 32
Cn1cc(-c2ccccc2)cc(C#N)c1=O | -1.2 | . | 6 | -10% | -14
O=C(/C=C/c1ccc(F)cc1)NC(=S)NNC(=O)[C@H]1C[C@@H]1c1ccccc1 | -1.8 | . | . | . | 7
CCCC(=O)c1ccc(N2CCN(C(=O)c3cccs3)CC2)c(F)c1 | 1.7 | . | . | . | 2
COCC(C)NS(=O)(=O)c1ccc(C(=O)NCCCn2ccc3ccccc32)cc1 (centres undefined) | 1.3 | . | . | . | -2
CCCCN(CC)CCCNC(=O)C1c2ccccc2C(=O)N(C)C1c1cn(C)c2ccccc12 (centres undefined) | -2.1 | -30 | -5 | -1% | 8
Cc1cc(Cl)ccc1NC(=S)NCC(O)c1ccccc1 (centres undefined) | -1.2 | . | . | . | 92
COc1ccc(CCNC(=O)CN(c2ccc(OC)cc2)S(C)(=O)=O)cc1 | 0.5 | . | 14 | 0% | -5
CCOc1ccc(S(=O)(=O)NCCC(=O)N2CCCC(C)C2)cc1 (centres undefined) | -5.0 | . | . | . | -12
Cc1ccc(C(=O)N/N=C\c2cccnc2)s1 | 1.7 | . | . | . | -12
CS(=O)(=O)Nc1ccc(C(=O)N2CCN(c3ccccc3)CC2)cc1 | 0.8 | -47 | 7 | 2% | 5
O=C(Nc1ccccc1)c1nsnc1C(=O)Nc1ccccc1 | 0.4 | . | -2 | 7% | -7
CCOc1ccccc1NC(=O)N1CCC(NC(=O)c2ccccc2C)CC1 | 1.0 | -9 | 8 | 1% | -5
O=C(Nc1ccc2c(c1)N(S(=O)(=O)c1cccs1)CCC2)c1c(F)cccc1F | 10 | . | . | . | 3
CC(/C=C/c1ccccc1)=N\NC(=O)Cn1cncn1 | 0.7 | . | . | -1% | -2

Among those listed so far, these contain a furan ring, fused or not:
SMILES | RecA intein inh | YopH inh | Arbovirus inh | Mtb H37Rv | Mtb bLac sens | others
COc1ccccc1S(=O)(=O)Cc1ccc(C(=O)N2CCN(c3ccccn3)CC2)o1 | . | 0 | 8 | -10% | 1 | Arbovirus inh repeat=-2
CCn1cc(C(=O)Nc2ccc(NC(=O)c3ccco3)cc2)c(=O)c2ccc(C)nc21 | 1.8 | -23 | 15 | -13% | 4
NC(=O)c1c(-c2ccccc2)oc2ccc(O)cc12 | -1.2 | 31 | 7 | -6% | 32

Continuation.
SMILES | RecA intein inh | YopH inh | Arbovirus inh | Mtb H37Rv | Mtb bLac sens | others
O=C(COC(=O)CNC(=O)c1ccccc1)Nc1ccc(S(=O)(=O)N2CCOCC2)cc1 | 1.5 | . | 6 | -4% | 5
CSCC[C@H](NC(=O)OC(C)(C)C)c1nnc(SCc2ccc(F)cc2)o1 | 3.5 | -44 | 2 | 12% | -3
COC(=O)c1cc(C(=O)N2CCN(c3ncccn3)CC2)cc([N+](=O)[O-])c1 | -0.3 | . | . | . | 8
CN(C)c1ccnc(C(=O)O)c1 | . | . | 12 | -2% | 2
O=C(NC(=S)Nc1ccc(N2CCOCC2)cc1)c1cncc(Br)c1 | 0.3 | 5 | 8 | 2% | 14
Cc1cc(C)c(S(=O)(=O)Nc2ncn[nH]2)c(C)c1 | -0.3 | . | . | . | 1
COc1cccc(CNn2c(-c3cccc(C)c3)nc3ccccc3c2=O)c1O | -3.9 | -33 | -3 | 5% | 13
Cc1cc(C)c2oc(-c3ccc(Cl)c(NC(=O)c4ccc(C#N)cc4F)c3)nc2c1 | -1.1 | -97 | -2 | . | 79
COC(=O)[C@H](Cc1c[nH]c2ccccc12)NC(=O)NCc1ccc(OC)cc1 | 1.4 | . | . | . | -7
O=C(NNc1c2ccccc2nc2ccccc12)c1ccc(O)cc1O | -2.8 | -41 | -25 | . | 62
NC1=C(Br)C(=O)c2ccccc2C1=O | 90* | . | . | -21% | 90
CCOC(=O)C1(Cc2cccc(OC)c2)CCCN(C(=O)CCSC)C1 (centres undefined) | 1.7 | . | . | . | 0
O=C(CSc1nc(-c2ccco2)cc(C(F)(F)F)n1)NCCc1ccccc1 | -0.8 | 32 | -13 | -6% | -10
COc1ccc(OCC(O)CN(C2CCCCC2)C2CCCCC2)cc1 (centres undefined) | -0.1 | -12 | 2 | 3% | 10
COc1ccc(/C=C2\SC(=S)N(CCC(=O)N(CCO)Cc3ccccc3)C2=O)cc1OC | 4.9 | . | . | . | 2
Cc1ccc2oc(C(=O)NCC(c3ccco3)N3CCCC3)c(C)c2c1 (centres undefined) | 0.3 | . | . | . | -3
O=C(c1cccs1)N1CCN(C(=O)N2CCOCC2)CC1 | -3.2 | -47 | 10 | -18% | -5
CC(NC(=O)Nc1ccc(F)cc1)C(c1cccs1)N1CCCC1 (centres undefined) | 0.8 | -17 | -5 | -8% | 0
Cc1ccc(C)c(OCC(=O)Nc2ccc(N3CCOCC3)cc2)c1 | 3.7 | . | 2 | -1% | 10
CCCCN(CC)CCCNC(=O)c1cn(CC)c2ccc(S(=O)(=O)N3CCc4ccccc4C3)cc2c1=O | 1.4 | . | -32 | 0% | 2
Cc1cc(C(=O)CSc2nnc(Cc3ccccc3)o2)c(C)n1Cc1ccc2c(c1)OCO2 | 0.3 | 3 | -16 | -16% | -4
Cc1ccc(S(=O)(=O)NCc2ccccc2)cc1C(=O)NCC(C)(C)N1CCOCC1 | -5.4 | . | . | . | 2
Cc1ccc(C)c(NC(=O)CCc2nnc3ccc(NCc4ccco4)nn23)c1 | -2.9 | . | . | . | 2
O=C(NCC1CCCO1)C1CC(=O)N(C2CCCCCC2)C1 (centres undefined) | 0.4 | -5 | 0 | -4% | -2
O=C(c1ccco1)N1CCN(S(=O)(=O)c2cccc([N+](=O)[O-])c2)CC1 | -1.7 | . | 0 | -9% | -2

Continued, overlapping the part above by 6 compounds.
SMILES | RecA intein inh | YopH inh | Arbovirus inh | Mtb H37Rv | Mtb bLac sens | others
CCCCN(CC)CCCNC(=O)c1cn(CC)c2ccc(S(=O)(=O)N3CCc4ccccc4C3)cc2c1=O | 1.4 | . | -32 | 0% | 2
Cc1cc(C(=O)CSc2nnc(Cc3ccccc3)o2)c(C)n1Cc1ccc2c(c1)OCO2 | 0.3 | 3 | -16 | -16% | -4
Cc1ccc(S(=O)(=O)NCc2ccccc2)cc1C(=O)NCC(C)(C)N1CCOCC1 | -5.4 | . | . | . | 2
Cc1ccc(C)c(NC(=O)CCc2nnc3ccc(NCc4ccco4)nn23)c1 | -2.9 | . | . | . | 2
O=C(NCC1CCCO1)C1CC(=O)N(C2CCCCCC2)C1 (centres undefined) | 0.4 | -5 | 0 | -4% | -2
O=C(c1ccco1)N1CCN(S(=O)(=O)c2cccc([N+](=O)[O-])c2)CC1 | -1.7 | . | 0 | -9% | -2
CCCn1c(SCC(=O)N2CCOCC2)nnc1-c1ccncc1 | -0.2 | . | . | . | 3
COc1ccc(CNS(=O)(=O)c2ccc3c(c2)N(C(C)=O)CC(C)S3)cc1 (centres undefined) | -3.0 | . | . | . | -6
COc1ccc(N(CC(=O)N2c3ccccc3CC2C)S(=O)(=O)c2c(C)nn(C)c2C)cc1 (centres undefined) | -1.0 | -12 | -16 | 6% | -4
CCOC(=O)c1ccc(NC(=O)CN2C(=O)CN(C(C)=O)C2=S)cc1 | 0.1 | . | . | . | -5
CN1CCN(c2nnc(-c3cccs3)c3ccccc23)CC1 | -0.7 | . | 0 | 8% | 2
Cn1cccc1-c1cc(C(=O)N/N=C/c2ccccc2Cl)[nH]n1 | -1.4 | . | . | . | -7
CCCCOc1cc(CC2CNC(=O)N2)ccc1OC (centres undefined) | 2.2 | . | . | -8% | -1
OCCC1CN(CCCn2cccn2)CCN1Cc1ccccc1 (centres undefined) | 2.9 | . | 2 | 24% | -5
Cc1cc(C)cc(NC(=O)/C=C/c2ccc([N+](=O)[O-])s2)c1 | 1.6 | -6 | 8 | 16% | 2
CC(=O)c1ccc(S(=O)(=O)Nc2ccc(C(=O)NCC(c3cccs3)N3CCOCC3)cc2)cc1 (centres undefined) | -1.3 | . | . | . | -11
Cc1ccc(S(=O)(=O)NC2c3cccc4cccc(c34)C2Sc2nc(C)cc(C)n2)cc1 (centres undefined) | 4.8 | -19 | 1 | 12% | 23
CCOC(=O)C(C)Sc1ncnc2c1c(-c1ccccc1)cn2-c1ccc(OC)cc1 (centres undefined) | -1.1 | -28 | -6 | . | 86
Cc1nc(CNS(=O)(=O)c2ccc(Oc3ccccc3)cc2)cs1 | -0.9 | -1 | 10 | -9% | 2
COc1cc(C)ccc1OCCOCCOc1ccccc1Br | 7.5 | -36 | 19 | . | -3
Cc1cc(OCC(=O)NC(C)C)ccc1Cl | -0.3 | . | 1 | 8% | 3
CCCOc1ccc(C(=O)N2CCCC2C(=O)O)cc1 (centres undefined) | -1.9 | -47 | 8 | -6% | 0
O=C(NCCN1CCCCC1)Nc1cccc(F)c1 | 1.5 | . | . | . | -8
NCC12CC3CC(C1)CC(CN)(C3)C2 | 0.3 | -39 | -10 | -8% | -8
NS(=O)(=O)c1ccc(NC(=O)COC(=O)COc2ccc(Cl)cc2)cc1 | -0.1 | . | 1 | -6% | -9
CN1C2CCC1CC(NC(=O)CSCc1ccc(Cl)cc1Cl)C2 (centres undefined) | 3.4 | . | . | -13% | -6
O=C(Nc1nccs1)C1CCCCN1S(=O)(=O)c1ccccc1 (centres undefined) | 2.2 | . | . | -12% | 1
C#CCN1C(=O)C(O)(CC(=O)c2ccc(OC)c(OC)c2)c2ccccc21 (centres undefined) | 0.2 | 10 | -8 | -6% | 4 | Arbovirus inh repeat=-12
Cc1ccc(/C=N/NC(=O)CC2N=C(Cc3ccccc3)NNC2=O)cc1 (centres undefined) | -1.5 | -48 | 4 | -5% | 1
O=C(CCCCCN1C(=O)c2cccc3cccc(c23)C1=O)NCc1ccco1 | 1.4 | . | . | 6% | -7
COc1ccc(NC(=O)c2cccc3cccnc23)cc1S(N)(=O)=O | -3.0 | . | . | . | 8

(cont.)
SMILES | RecA intein inh | YopH inh | Arbovirus inh | Mtb H37Rv | Mtb bLac sens | others
N=c1sccn1CC(=O)Nc1ccc([N+](=O)[O-])cc1Cl | 1.5 | . | . | 6% | -9
COc1ccc(CNC2CC(C)N(C)CC2C)cc1OC (centres undefined) | -1.9 | . | . | . | 0
NCC(=O)c1cccc2ccc[n+]([O-])c12 | 0.6 | . | . | -6% | ?
N=C1c2ccccc2CN1CC(=O)c1ccccc1 | 0.0 | -25 | -3 | 4% | -10
Cn1c(=O)c2c(nc(SCC(=O)c3ccc(F)cc3)n2C)n(C)c1=O | -0.4 | . | -4 | -8% | -2
CC(=O)N1CCOCCOCCOCC1 | 0.2 | . | . | . | 2
COc1cc(/C=C(/C#N)c2ccc(F)cc2)ccc1OCc1ccc(C(=O)O)o1 | 2.5 | -33 | 5 | -1% | 78
Fc1ccc(SCCc2ccncc2)cc1 | 1.2&0.9 | 17&5 | 0&-1 | -2%&1% | -5&-11
